KCNQ2 enhance – potentiators of rat KCNQ2 potassium channel; CHO-K1 KCNQ2, FluxOR thallium flux fluorescence; active compounds read high; AID 2239; B-score at 10 µM; O88943; hit rate 0.54% among 310,000;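 active means fluorescence ratio B-score at least 3 SD of library B-scores, with initial fluorescence B-score within 3 SD, cut at about 5.3 in these data; same plate scores as AID 2156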;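 further: B-score of peak minus minimum over baseline fluorescence ratio after K+ and Tl+ stimulus; positive B-score means potentiation of KCNQ2 with more thallium influx and brighter signal; only the inactives scoring about 0 or higher are listed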
Target sequence (O88943 whole entry, looked up): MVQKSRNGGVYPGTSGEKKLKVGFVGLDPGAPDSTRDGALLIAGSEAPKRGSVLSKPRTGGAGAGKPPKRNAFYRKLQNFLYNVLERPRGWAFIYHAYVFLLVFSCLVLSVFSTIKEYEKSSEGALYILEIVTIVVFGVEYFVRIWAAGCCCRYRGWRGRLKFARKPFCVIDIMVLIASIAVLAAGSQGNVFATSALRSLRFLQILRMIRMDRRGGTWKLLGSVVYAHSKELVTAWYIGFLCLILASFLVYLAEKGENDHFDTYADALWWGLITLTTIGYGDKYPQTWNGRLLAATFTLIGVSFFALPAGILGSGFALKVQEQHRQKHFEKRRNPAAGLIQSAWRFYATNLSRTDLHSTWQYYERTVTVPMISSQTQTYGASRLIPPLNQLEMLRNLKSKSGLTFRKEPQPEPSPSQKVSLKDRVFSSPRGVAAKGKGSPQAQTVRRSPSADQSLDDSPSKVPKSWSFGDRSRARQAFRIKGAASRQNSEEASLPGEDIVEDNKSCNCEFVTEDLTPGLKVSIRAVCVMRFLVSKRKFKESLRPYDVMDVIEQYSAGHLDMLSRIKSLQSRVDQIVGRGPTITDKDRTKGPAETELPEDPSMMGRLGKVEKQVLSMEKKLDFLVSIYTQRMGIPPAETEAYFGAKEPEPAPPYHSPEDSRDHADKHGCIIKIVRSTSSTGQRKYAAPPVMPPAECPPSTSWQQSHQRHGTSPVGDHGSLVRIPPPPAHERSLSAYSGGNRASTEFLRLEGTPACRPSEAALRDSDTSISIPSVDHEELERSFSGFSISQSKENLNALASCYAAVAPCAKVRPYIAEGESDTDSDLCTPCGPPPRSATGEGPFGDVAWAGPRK
KCNQ2 enhance baseline – second read-out of KCNQ2 enhance, no call of its own (marks repeat the call); B-score; compound at 10 µM; measured here: initial fluorescence intensity artifact check;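 brightness before thallium and not channel activity; 0 = typical well and far values either way flag optical interference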
Active calls of the source: *. This is a subset (hit frequency here may not be typical).

Molecule	KCNQ2 enhance	KCNQ2 enhance baseline
O=[N+]([O-])c1ccc(O)c(/C=N/Nc2nc3ccccc3[nH]2)c1	1.1	-0.11
COc1ccccc1CNC(=O)C1CCCN1S(=O)(=O)c1cccc2cccnc12 (stereo not given)	0.04	-0.89
O=C(O)COc1ccc(/C=N/n2c(COc3ccccc3)nc3ccccc3c2=O)cc1	0.64	-2.4
CCCCCCCOc1ccc(C2CC(=O)N(C)C2=O)cc1 (stereo not given)	4.2	-0.77
O=C(CCS(=O)(=O)c1ccc(Cl)cc1)Nc1ccc(F)cc1	1.1	-2.6
Cc1cccc(Nc2ncnc(N)c2[N+](=O)[O-])n1	0.65	0.01
O=C(O)C1CCN(C(=O)c2cc(F)cc3c2OCOC3)CC1	0.34	1.1
CC(=O)c1c(C)oc2ccc(NS(=O)(=O)c3ccc(F)cc3C)cc12	0.82	-1.4
CC(C)(C)c1ccc(C(=O)NC(=S)N2CCCC2)cc1	2.1	0
CCn1nccc1C(=O)Nc1ccc(Cl)c(Cl)c1	0.66	0.79
O=C(NC(NC(=S)Nc1cccc(Cl)c1)C(Cl)(Cl)Cl)OCc1ccccc1 (stereo not given)	1.4	0.29
COCCn1c(C)cc(C(=O)CSc2nnc3ccccn23)c1C	0.11	0.82
Cc1ccc(C(=O)Nc2ccc(CC(=O)O)cc2)o1	1.2	-0.98
O=C(O)Cc1ccc(NC(=O)c2cnccn2)cc1	0.95	-0.66
CC(=O)NCCc1ccc(S(=O)(=O)Nc2ccc3c(c2)OCCO3)cc1	2	-0.33
COc1ccc(C(=O)N/C(=C\c2ccco2)C(=O)OCc2ccco2)cc1	1.3	-0.82
CCCCn1c(Cn2nc(C(=O)O)c3ccccc3c2=O)nc2cc(S(N)(=O)=O)ccc21	0.03	0
CCCCSCCCNC(=O)Nc1ccc(C)c(C)c1	8.7*	-0.14*
COC(CNC(=O)CCc1c(C)nc2c(-c3ccc(F)cc3)c(C)nn2c1C)OC	1.4	-0.21
NC(=O)Cc1c[nH]c2cccc(O)c12	2.5	-1.5
COc1ccc(C2=NO[C@H]3C[C@](C(=O)NC(C)C)(S(=O)(=O)c4ccccc4)C[C@@H]23)cc1	0.03	2
Cc1ccc(/C=C/C(=O)NCc2cccs2)c(C)c1	1.3	-0.41
COc1cc(/C=C(\C#N)c2nc3ccccc3[nH]2)ccc1Oc1ccc([N+](=O)[O-])cn1	1.2	0.08
Cc1cc(NC(=O)CCC(=O)N(c2ccccc2)C(C(=O)NC2CCCC2)c2ccccc2C)no1 (stereo not given)	0.03	0.5
O=S(=O)(CCc1ccncc1)C1Cc2cccc3cccc1c23 (stereo not given)	1.3	-0.44
O=C(CS(=O)(=O)c1cn(Cc2cccc(F)c2)c2ccccc12)N1CCCCC1	1.6	0.11
CCC(=O)Nc1ccc(S(=O)(=O)N2CCc3ccccc3C2)cc1	0.56	0.53
CC1(C)N=C2C(=[N+]1[O-])CCC/C2=N\O	1.1	0.91
O=C(N/N=C/c1ccccc1F)c1csc2c1CCCC2	0.49	0.01
O=C(O)COc1ccc2occ(C(=O)c3ccccc3)c2c1	0.57	1.6
CC(NCc1cccs1)c1ccccc1 (stereo not given)	0.56	1.2
CCCCC(=O)Nc1ccc(C(=O)Nc2cccnc2)cc1	0.14	1.5
COc1cc(OC)c(C2SCCCS2)cc1OC	0.28	0.16
Cc1ccc(-n2nc3c([n+]2[O-])CCc2c-3no[n+]2[O-])cc1	1.1	-2.7
O=C(CN1CCOCC1)Nc1ccc(Cl)cc1	0.12	-0.05
COCCNC(=O)c1ccccc1NC(=O)c1ccccc1N(C)S(C)(=O)=O	0.89	0.35
COCCNC(=O)c1ccc(CS(=O)(=O)c2ccccc2C)o1	0.53	-0.84
Cc1ccc(S(=O)(=O)/N=C(/Nc2cccc(C(=O)O)c2)c2ccccc2)cc1	0.97	1.6
CC1(C)Cc2c(C#N)c(SCC(=O)O)nc(N3CCOCC3)c2CO1	0.3	-0.26
Cc1cc(C(=O)CCC(=O)N2CCN(c3ccccc3F)CC2)c(C)s1	0.21	0.99
COc1ccc(CCNC(=O)CN2C(=O)COc3ccc(S(=O)(=O)N4CCOCC4)cc32)c(OC)c1	0.04	1.4
CC(C)CSc1n[nH]c(N)n1	1.4	-0.68
COc1ccc(N2CCN(C(=O)c3ccc(CS(=O)Cc4ccc(C)cc4)o3)CC2)cc1 (stereo not given)	2	1.7
Nc1ncnc(NCc2ccccc2)c1[N+](=O)[O-]	0.98	-0.06
COc1ccc(CNc2ccc(N3CCOCC3)cc2)cc1	0.62	-3.1

4 structures out of the list, sorted by SMILES length, low to high.
Molecule	KCNQ2 enhance	KCNQ2 enhance baseline
Cc1ccc(-n2nc3c([n+]2[O-])CCc2c-3no[n+]2[O-])cc1	1.1	-2.7
Cc1ccc(S(=O)(=O)/N=C(/Nc2cccc(C(=O)O)c2)c2ccccc2)cc1	0.97	1.6
COc1ccc(N2CCN(C(=O)c3ccc(CS(=O)Cc4ccc(C)cc4)o3)CC2)cc1 (stereo not given)	2	1.7
COc1ccc(CCNC(=O)CN2C(=O)COc3ccc(S(=O)(=O)N4CCOCC4)cc32)c(OC)c1	0.04	1.4

(listing goes on)
Molecule	KCNQ2 enhance	KCNQ2 enhance baseline
CC(NS(=O)(=O)c1ccc(Cl)c(Cl)c1)C(=O)OCC(=O)Nc1ccc2c(c1)OCO2 (stereo not given)	2	2.3
C#CCCOC(=O)Nc1ccccc1	0.64	0.67
COc1ccccc1C(=O)N1CCN(Cc2cccnc2)CC1	0.68	0.16
O=C(O)CN1C(=O)C2C3CC(C2C1=O)C1C(c2ccc(Cl)cc2)c2sc(=O)[nH]c2SC31 (stereo not given)	1	-0.03
Cc1cc(Br)ccc1OCCCCN1CCCCC1	0.67	4.6
CC(=O)N1CCN(C(=O)CCC(=O)O)CC1	0.18	1.5
CN1CCN(S(=O)(=O)Cc2ccccc2Cl)CC1	0.43	1
COc1cc(C(=O)Nc2ccc(O)cc2C(=O)O)ccc1OC(C)=O	0.54	0.5
CCCCN(C)CCCNC(=O)CS(=O)Cc1nc(-c2ccc(OC)c(OC)c2)oc1C (stereo not given)	0.64	0.14
COc1ccccc1NC(=O)Nc1ccc(Cc2ccncc2)cc1	0.06	-0.04
CC(=O)Nc1ccc(N2CCCC(C)C2)c([N+](=O)[O-])c1 (stereo not given)	1.4	-0.46
O=S(=O)(c1ccc(-c2ccon2)s1)N1CCN(c2ccccn2)CC1	0.33	-0.07
C/C(=N\NC(=O)c1nnn(-c2nonc2N)c1-c1cccs1)c1ccc(C)cc1	1.1	-0.12
COc1cc(OC)cc(-c2nc3nc(C)c(CCC(=O)O)c(C)n3n2)c1	0.82	-0.98
COc1ccc(C(=O)Nc2ccncc2)cc1[N+](=O)[O-]	0.33	-2.6
CCOCCn1c(=O)c2c(nc3n2CCCN3Cc2ccccc2)n(C)c1=O	1.2	-0.1
Cc1cc(C)nc(SCC(=O)N(C)CC(=O)Nc2ccccc2Br)n1	1.2	0.67
C=C(C)CNC(=S)Nc1nc2c(cc1C(=O)OCC)CCCC2	1.8	-2.6
C/C=C/c1ccc(OCCSc2nc(C)cc(=O)[nH]2)c(OC)c1	0.3	-0.45
O=C(CNC(=O)c1ccc2c(c1)OCO2)N/N=C(Br)/C=C/c1ccccc1	0.51	0.01
CCOC(=O)c1c(C)[nH]c(=S)c(C#N)c1-c1ccccc1	0.15	1.3
Cc1cc(C(=O)NNc2ccc(C)c(C)c2)no1	2.3	2.3
CC1/C(=C\c2ccc(Cl)cc2)C(=O)C2CC1C2(C)C (stereo not given)	0.04	0.28
CC(C)N(C)CCOC(=O)c1ccccc1Cl	1.3	0
O=C(COc1ccc(Br)cc1Br)NNC(=O)c1cccs1	1.6	-1.1
O=C(O)CSc1nnc(-c2ccc(Cl)cc2Cl)n1-c1ccccc1	2.2	-1
CCC(C)(C)n1nnnc1C(c1ccccc1)N1CCN(C2CCCC2)CC1 (stereo not given)	0.78	-2.1
CCc1ccc(NC(=O)c2n[nH]c(=O)c3ccccc23)cc1	0.03	-1.2
O=C(Nc1ccc(N2CCOCC2)cc1)C1CCN(S(=O)(=O)c2ccc3c(c2)OCCO3)CC1	1.3	-2.1
O=C(CSc1ccc(F)cc1)Nc1ccc(Br)cc1	0.31	0.42

3 records drawn at random from those above:
Molecule	KCNQ2 enhance	KCNQ2 enhance baseline
O=C(Nc1ccc(N2CCOCC2)cc1)C1CCN(S(=O)(=O)c2ccc3c(c2)OCCO3)CC1	1.3	-2.1
C=C(C)CNC(=S)Nc1nc2c(cc1C(=O)OCC)CCCC2	1.8	-2.6
CC1/C(=C\c2ccc(Cl)cc2)C(=O)C2CC1C2(C)C (stereo not given)	0.04	0.28

Continued.
Molecule	KCNQ2 enhance	KCNQ2 enhance baseline
COc1ccc(OCCCC(=O)Oc2ccc(OC)cc2)cc1	0.74	1.7
Cc1nc(C)c(C(=O)O)c(-c2cccs2)c1C(=O)O	0.8	-1.7
Cc1cc(C(=O)N/N=C/c2c(C)[nH]n(-c3ccccc3)c2=O)n[nH]1	0.76	0.16
CC1CCCN(C(=O)CCNC(=O)c2ccccc2Cl)C1 (stereo not given)	0.22	0.21
O=C(O)CCC(=O)N(Cc1cccnc1)Cc1cccc(F)c1	0.08	1.3
CCn1c(-c2ccc(C)cc2)n[nH]c1=S	2	1.7
O=C(O)CC(NC(=O)c1ccc2c(c1)OCO2)c1cccc([N+](=O)[O-])c1 (stereo not given)	1.8	0.23
O=C(O)CC1NC(=O)N(C2CCCCC2)C1=O (stereo not given)	0.58	-2.4
O=C(COc1ccccc1[N+](=O)[O-])OC1CCS(=O)(=O)C1 (stereo not given)	0.49	-1.7
Cc1cccc(N2CCN(S(=O)(=O)c3c(C)nc4scc(C)n4c3=O)CC2)c1C	1.9	0.98
COc1ccc(COc2ccc(C3C(S(=O)(=O)c4ccccc4)CON3C)cc2OC)cc1 (stereo not given)	0.22	-0.34
O=[N+]([O-])c1cc(-c2ccc(C(=S)N3CCOCC3)o2)ccc1Cl	2.1	-1.6
Cn1c(=O)[nH]c(=O)c2c1nc(N1CCc3ccccc3C1)n2CCSc1nc2ccccc2s1	1.6	0.24
O=C(Nc1ccc(F)cc1F)C1CCCN(c2ncnc3c2nc2n3CCCCC2)C1 (stereo not given)	0.29	-0.81
COC(=O)c1[nH]c2ccc(C)cc2c1NC(=O)CN1CCN(Cc2ccccc2)CC1	0.2	0.77
CN1CCN(c2nc3cc(C(F)(F)F)ccc3n3cccc23)CC1	2	0.06
COCCn1c(C)cc(C2=NNC(=Nc3ccc(Cl)cc3Cl)SC2)c1C	0.02	0.66
CCOC(=O)c1c(N)sc(C(=O)N2CCCCCC2)c1C	2.5	-2.2
CCC1(O)c2ccccc2-c2ncccc21 (stereo not given)	1.5	0.43
O=c1oc2ccccc2c(O)c1Cc1cc(Cl)c2cccnc2c1O	3.6	-0.8
COc1ccc(OC)c(CCNC(=O)c2ccc(CS(=O)Cc3cccc(Cl)c3)o2)c1 (stereo not given)	0.99	-0.43
C[C@H](NC(=O)N1CCn2c1nc1ccccc12)C(=O)N1CCCCC1	0.78	-0.02
COc1ccc(C)cc1NC(=O)C1CCCN(S(=O)(=O)c2ccc(-n3cnnn3)cc2)C1 (stereo not given)	0.56	0.43
CCOC(=O)C1(Cc2cccc(F)c2)CCN(Cc2cnc(C)s2)CC1	0.07	1.6
Cc1cccc(N2CCN(S(=O)(=O)c3c(C)[nH]c(C)c3C(=O)N3CCCC3)CC2C)c1 (stereo not given)	0.47	0.51
CCCCn1cnc2c1c(=O)n(CC(=O)c1cc(C)n(C)c1C)c(=O)n2CC(C)C	1.1	-0.13
O=C(CN1CCCCC1)N1CCN(S(=O)(=O)c2ccccc2)C1	0.2	0.36
Cc1ccc(C2Nc3ccccc3C(=O)N2CCN2CCNC2=O)cc1 (stereo not given)	0.54	-0.01
Cc1cc(C)nc(NC(=O)CCC2CCCC2)c1	2.4	-1.8
COc1ccc(C(=O)NCC(C)NC(=O)c2ccc(OC)c(Br)c2)cc1Br (stereo not given)	0.15	1.6
COc1ccccc1CNC(=S)Nc1cc(C)ccc1C	0.3	-1.9
C=CCNC(=O)c1onc(CSc2ccncc2)c1C(=O)NCC=C	0.72	-0.91
O=S(=O)(c1ccc(Oc2ccc(Cl)cc2)nc1)N1CCOCC1	0.72	-1
CN(C)C(=S)NC(=O)C12CC3(C)CC(C)(CC(C)(C3)C1)C2	0.23	0.19
Cc1ccc(-n2nc(CC#N)c(C#N)c2N)cc1Cl	0.22	-0.85
CCOc1ccc(NC(=O)N2CCC(C(=O)c3ccc(F)cc3)CC2)cc1	0.57	-1.3
O=Cc1cn(CC(=O)N2CCOCC2)c2ccccc12	0.41	-2.7
C=CC[N+](C)(C)CCN1C(=O)C2C(c3ccccc3)C=CC(c3ccccc3)C2C1=O (stereo not given)	0.73	1.9
CCCCn1c(CCC(=O)O)nc2c1c(=O)[nH]c(=O)n2CCC	1.1	0.04
N=c1sccn1CC(=O)NCCc1ccc(Cl)cc1	0.11	0.46
CCC(=O)NCCc1nc2cc(NC(=O)Nc3ccccc3)ccc2n1C	0.67	0.04
O=C(Nc1cccc(O)c1)c1noc2c1CCCCC2	0.25	-0.06
COC(=O)C[N+](C)(C)C/C=C\c1ccccc1	0.37	-0.58
COc1ccc(C)cc1NC(=O)CSc1ccc(-c2ccco2)nn1	1.4	-1.7
CCC1Oc2ccccc2N(CC(=O)NCCCN2CCCCC2CC)C1=O (stereo not given)	0.85	-0.02

Screening results as filed in PubChem BioAssay.
